D2 ag – agonists of human D2 dopamine receptor (beta-arrestin) | DiscoveRx PathHunter D2 beta-arrestin, luminescence, 90 min; 100% = 57 uM dopamine signal | activation, % (concentration not given with the values) | actives 0.084% (n = 360,000) | AID 624465; in the data active = activation above about 40%; inconclusive = about 15% to 40%; inactive = below about 15%; note: compound concentration not given in the record; the text of the record calls up to 30% inactive
Target sequence (P14416 whole entry, looked up): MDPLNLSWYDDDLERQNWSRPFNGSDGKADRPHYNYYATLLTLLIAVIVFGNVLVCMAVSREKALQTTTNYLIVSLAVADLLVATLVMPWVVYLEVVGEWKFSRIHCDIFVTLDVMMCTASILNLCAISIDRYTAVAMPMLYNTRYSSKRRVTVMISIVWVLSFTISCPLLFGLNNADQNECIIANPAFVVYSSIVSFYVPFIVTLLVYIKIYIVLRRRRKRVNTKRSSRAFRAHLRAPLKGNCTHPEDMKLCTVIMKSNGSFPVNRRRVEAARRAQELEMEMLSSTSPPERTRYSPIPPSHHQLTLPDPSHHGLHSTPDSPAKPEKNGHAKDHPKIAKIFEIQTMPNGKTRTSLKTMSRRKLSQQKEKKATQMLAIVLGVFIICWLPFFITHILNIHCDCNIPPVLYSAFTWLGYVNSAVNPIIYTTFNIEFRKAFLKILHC
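DiscoveRx PathHunter D2 beta-arrestin cells (2,100/well) attached overnight, then compound-stimulated 90 min at 37 C in HBSS/10 mM HEPES/0.1% Tween-20 buffer; beta-galactosidase complementation read by luminescence after 1 h at ambient temperature. Dopamine 57 uM final (EC100) as control.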
Sfp inh – inhibitors of Bacillus subtilis Sfp phosphopantetheinyl transferase. Q9F4F7. Biochemical Sfp PPTase activity, qHTS. Potency, µM, for inactives: max response, negative = inhibition, most hits filed as inhibitors. actives 3.5% (n = 310,000); active = well fitted inhibition curve with a large enough effect; inconclusive = small, poorly fitted or top-dose-only effect, or another doubt; inactive = no such curve, though single readings can be large or run the other way;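 note: the enzyme is Sfp with the accession as filed and its product quenches rhodamine fluorescence; potency is the fitted concentration of half-maximal effect; 0% = enzyme reaction without inhibitor and -100% = no enzyme wells; top concentration of the series not given in the record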
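Fluorescence-quenching assay with 15 nM Sfp, 5 uM rhodamine-CoA and 12.5 uM BHQ-2-labelled ybbR peptide in pH 7.6 Hepes/MgCl2 buffer. Enzyme was pre-incubated with compound for 15 min at room temperature. Rate was taken from the 30-min fluorescence change (525/598 nm).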
Menin MLL FP FL – menin-MLL binding inhibition, fluorescein peptide. Fluorescence polarization, fluorescein-MLL peptide displacement from menin. FP activity change, % at 61.4 µM. 290,000 tested, under 10 active. AID 1766; inconclusive = falling polarisation curve, or a change in total fluorescence; inactive = total fluorescence flat and polarisation flat or rising; no compound was filed as active; the % refers to the polarisation; negative = inhibition;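 note: % of control where 0% means no effect; inhibitors lower the polarisation; unlabelled MLL peptide was the positive control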
PINK1 expr mod – changes PINK1 expression | PINK1 immunofluorescence, high-content cytometry, 24 h | Potency, µM (titrated, usually from 76.6 µM), for the others: at the highest dose activation (PINK1 increase), actives largely listed as activators | actives 0.2% (n = 410,000) | AID 624263; active = well fitted activation curve with a large enough effect; inconclusive = small, poorly fitted or top-dose-only effect; inactive = flat fitted curve, though single readings scatter; cell line not stated here;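 note: potency is the fitted concentration of half-maximal effect; % of control where 0% means no effect; nearly all actives have a fitted effect of over 65% in size; a mitochondrial uncoupler was the plate control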
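A stable cell line was treated with compounds at 5 concentrations for 24 hours, with CCCP as control. PINK1 levels and mitochondrial localization were measured by immunofluorescence with mitochondrial, cell and nuclear markers after fixation, read by laser-scanning cytometry.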
gsp agonist – agonists of gsp mutant (McCune-Albright syndrome); actives 0.13% (n = 340,000); Potency, µM (series often up to 76.9 µM), for inactives: top-dose activation (cAMP increase), usual class: activators; gsp mutant cells, cAMP HTRF, 30 min; control for the full effect not named in the record; active = well fitted activation curve with a large enough effect; inconclusive = small, poorly fitted or top-dose-only effect, or another doubt; inactive = no such curve, though single readings can be large or run the other way; cell line not stated here;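 note: phosphodiesterase inhibitor Ro 20-1724 added with compounds to block cAMP breakdown; potency is the fitted concentration of half-maximal effect; nearly all actives have a fitted effect of over 60% in size; about a fifth of the inactives were tested at one dose only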
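Cells in DMEM/10% FBS with G418 were pretreated with compounds in DMSO plus […] (300 uM stock) for 30 min at 37C. cAMP was measured by HTRF (cAMP-d2 plus anti-cAMP antibody-K) after 30 min at room temperature.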
gsp antag – antagonizes gsp, the McCune-Albright syndrome mutation; actives 0.4% (n = 340,000); gsp-mutant cells, cAMP HTRF, 30 min; control for the full effect not named in the record; AID 624288; Potency, µM (highest dose often 76.9 µM), for the others: at the highest dose activity change, negative = inhibition, actives largely listed as inhibitors; active = falling curve of any shape with a large fitted effect; inconclusive = falling curve, mostly with a smaller effect; inactive = flat or rising curve; cell line not stated here;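 note: intracellular cAMP measured with PDE inhibitor Ro 20-1724 present during compound exposure; potency is the fitted concentration of half-maximal effect; % is set by controls: 0 for no effect and ±100 for the full control effect; nearly all actives have a fitted effect of over 65% in size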
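G418-selected cells were plated in DMEM/10% FBS for 16-24 h at 37C, then treated with compounds plus the PDE inhibitor […] (300 uM solution added) for 30 min at 37C. Intracellular cAMP was measured by HTRF after 30 min lysis at room temperature.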
ClpP mod – qHTS Assay for Activators of ClpP; ATP-dependent Clp protease proteolytic subunit (Bacillus subtilis (strain 168)), P80244; purified B. subtilis ClpP, FRET peptide cleavage, 20 min; Potency, µM (titrated, usually from 57.5 µM), without a hit: at the highest dose activity change, negative = active; actives 1.9% (n = 340,000); active = well fitted falling curve with a large enough effect; inconclusive = small, poorly fitted or top-dose-only effect; inactive = no such curve, though single readings can be large or run the other way; note: potency is the fitted concentration of half-maximal effect; the source files actives as falling curves though it sought activators and does not explain the sign; nearly all actives have a fitted effect of over 65% in size; many hits overshoot -100%
Target sequence (P80244 whole entry, looked up): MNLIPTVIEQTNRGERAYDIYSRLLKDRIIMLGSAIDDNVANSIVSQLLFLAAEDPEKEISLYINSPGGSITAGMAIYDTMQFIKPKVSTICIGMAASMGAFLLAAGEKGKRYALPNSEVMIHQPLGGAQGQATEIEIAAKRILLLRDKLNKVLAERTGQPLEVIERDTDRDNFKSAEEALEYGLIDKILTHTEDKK
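FRET quenching reversal measured ClpP activation: 10 microg/mL B. subtilis ClpP at pH 8 with the FRET-FV decapeptide, read at 430 nm after 320 nm excitation. The 20-min minus 0-min signal was scaled between DMSO/no-enzyme wells and ADEP (5.8 microM final).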
Starred values were filed as active, the others as inactive; ? = inconclusive; . = not tested or not shown; & = joins results of further samples; [ ] = remark or other dose.

The line under a structure holds: D2 ag	Sfp inh	Menin MLL FP FL	PINK1 expr mod	gsp agonist	gsp antag	ClpP mod
[1] Cc1cc(F)ccc1S(=O)(=O)NCC(c1ccc2c(c1)OCO2)N1CCOCC1 (centres undefined)
 : 2.6	.	.	3.0%	-7%[15.4 µM]	10%	-1.8%
[2] Cc1ccc(C)c(S(=O)(=O)N2CCCOC2CNC(=O)C(=O)NCCc2ccccc2)c1 (centres undefined)
 : 0.0	10%	.	1.7%	-1%[15.4 µM]	-12%	1.7%
[3] CCCc1c(C(=O)N/N=C/c2cccc3ccccc23)nnn1-c1nonc1N
 : 1.2	13%	-3.1	3.2%	25%	-16%	-18%
[4] Cn1c(=O)[nH]c(=O)c2c1nc(SCC(=O)Nc1ccccc1)n2Cc1ccccc1
 : -1.8	3%	-1.1	0.5%	-37%[inhibitor]	13%	0.4%
[5] C#CCOC(=O)Nc1cccn(Cc2c(Cl)cccc2Cl)c1=O
 : 1.2	6%	-0.4	-0.7%	?	-18%	?
[6] O=C(Nc1ccc(S(=O)(=O)N2CCCC2)cc1)Nc1ccc(F)cc1F
 : -2.6	.	.	25%	2%	3%	-2.1%
[7] Cc1c(NC(=O)c2ccc3c(c2)OCO3)cccc1-c1nc2ccccc2s1
 : -1.6	-2%	-0.4	.	-10%	-2%	-2.2%
[8] O=C(O)CCCC(=O)Nc1ccc(C(=O)N2CCCCC2)cc1
 : -3.7	17%	-1.1	.	-2%	2%	-0.4%
[9] C=CCOc1c(/C=N\NC(N)=O)cccc1OC
 : -7.9	5%	0.0	-1.4%	6%	9%	3.9%
[10] Cn1nnc2cc(C(=O)Nc3ccc(Cl)cc3)ccc21
 : -10	7%	-1.1	4.4%	?	-8%	-5.3%
[11] CCc1nc2n[nH]c(N)c2c2c1CSC(C)(C)C2
 : -2.7	10%	7.4	-1.7%	-26%	9%	0.8%
[12] Cc1cc(=O)oc2c3c(cc(OCC(=O)NC(C)C)c12)OC(C)(C)CC3
 : -2.7	12%	0.8	-0.6%	?	5%	.
[13] CN(Cc1cccnc1)Cc1cn(Cc2ccccc2)nc1-c1ccc2c(c1)OCO2
 : -3.9	-8%	-2.5	-0.6%	-9%[15.4 µM]	-22%	.
[14] O=[N+]([O-])CC1(n2nc3ccccc3n2)CCCCC1
 : -3.7	.	.	-0.5%	-13%	3%	0.4%
[15] Cc1ccc(/C(O)=C2/C(=O)C(=O)N(c3ccccn3)C2c2cccc([N+](=O)[O-])c2)cc1 (centres undefined)
 : 0.7	1%	-3.5	-2.4%	-1%	-24%	-0.2%
[16] CC1CCc2c(sc3nc(SCC(=O)NCc4ccco4)nc(N)c23)C1 (centres undefined)
 : -2.7	-9%	5.3	3.3%	10%	-11%	-19%
[17] Cc1c(C(=O)OCc2ccccc2)[nH]c2c1C(=O)CC(c1ccco1)C2 (centres undefined)
 : 4.9	40µM*	7.5	2.1%	?	15%	-6.0%
[18] O=C(Nc1cccnc1)/C(N=Nc1c(Cl)cccc1Cl)=C(\O)c1ccccc1
 : -0.2	-47%	1.3	2.5%	3%	3%	-2.8%
[19] CCc1nnc(NC(=O)Cc2ccc(OC)c(OC)c2)s1
 : -5.3	26%	-3.7	0.2%	-26%	8%	-1.2%
[20] CCn1nc(C)c(/C=N/NC(=O)c2c[nH]c3ccccc23)c1C
 : -3.4	20%	2.0	3.1%	-18%	3%	4.2%

Going on with the list:
The line under a structure holds: D2 ag	Sfp inh	Menin MLL FP FL	PINK1 expr mod	gsp agonist	gsp antag	ClpP mod
[21] CC(C)NC(=O)C(=O)NCCCOC(C)C
 : 1.8	4%	2.1	2.3%	-2%	11%	-0.6%
[22] COc1ccc(S(=O)(=O)NCc2cc(-c3ccccc3Cl)no2)cc1
 : 2.5	-2%	1.2	1.5%	6%	?	.
[23] O=C(NC(=S)NCc1ccccc1)c1ccccc1F
 : 2.5	11%	0.0	.	-34%[inhibitor]	6%	-2.6%
[24] N#C/C(=C/c1ccc(F)cc1)C(N)=S
 : -4.1	35µM*	9.9	-0.9%	-1%[15.4 µM]	.	.
[25] CSc1cnn(-c2ccccc2)c(=O)c1SC
 : -1.3	79µM*	0.0	4.8%[38.3 µM]	6%	3%	-2.4%
[26] COc1cc(/C=C2/N=C(C3CCCCC3)OC2=O)cc(OC)c1OC
 : -2.2	?	4.3	4.5%	-2%	15%	-1.9%
[27] CC(=O)OC(C)=O
 : -4.3	.	.	0.7%	.	4%	-0.2%
[28] CCOc1ccc(-n2ccnc2SCC(=O)N2CCCc3ccccc32)cc1
 : -0.5	-22%	-0.2	-1.0%	5%	-1%	-6.9%
[29] Cc1ccc(OCC(=O)n2nc(C)cc2C)c(Br)c1
 : 0.1	20%	0.3	.	-1%	-7%	-21%
[30] COc1ccc(C(=O)Nc2ccccc2C(=O)NC2CC2)c(OC)c1OC
 : -1.2	.	.	1.3%	-15%	.	-1.8%
[31] CCOC(=O)NCc1ccc(S(=O)(=O)Nc2ccc(C)cc2)cc1
 : -1.7	17%	1.4	-1.6%	?	-2%	-2.2%
[32] Cc1nc2sc(-c3ccccc3)cc2c(=O)[nH]1
 : -1.2	20%	1.6	0.7%[38.3 µM]	-5%	-10%	?
[33] CCn1nc(C)c(CNCc2cn[nH]c2-c2cc3ccccc3o2)c1C
 : -2.1	12%	2.6	1.1%	7%[15.4 µM]	-8%	.
[34] CC(=O)c1ccc(NC(=O)C(C)OC(=O)C(C)Oc2cccc(C)c2)cc1 (centres undefined)
 : -0.4	18%	3.9	2.2%	-15%	-9%	1.0%
[35] O=C(NCc1nnc2c(C(F)(F)F)cc(Cl)cn12)c1cccs1
 : -1.7	-5%	-0.9	-1.6%	?	10%	-16%
[36] COc1ccc(Cl)cc1C(=O)NNC(=O)c1cccc([N+](=O)[O-])c1
 : -4.3	12%	-3.0	3.8%	6%	5%	-2.8%
[37] C[C@H](CO)N1C[C@H](C)[C@@H](CN(C)Cc2ccc(C(=O)O)cc2)Oc2ccc(NS(C)(=O)=O)cc2C1=O
 : -1.9	.	.	-1.1%	.	5%	-7.9%
[38] BrC(=C\c1ccccc1)/C=N/N1CCN(c2ccccn2)CC1
 : -3.8	-24%	2.5	-1.6%	1%	-2%	-14%
[39] CN(CC(=O)Nc1ccc(F)cc1)C(=O)CSc1ccc2c(c1)OCCO2
 : -2.2	.	.	-0.7%	-17%	11%	0.7%
[40] COc1ccc(-c2cc(C(=O)OCC(=O)N(C)C3CCS(=O)(=O)C3)c3ccccc3n2)cc1OC (centres undefined)
 : -2.9	25%	0.9	0.5%	?	-14%	.

(list continues)
The line under a structure holds: D2 ag	Sfp inh	Menin MLL FP FL	PINK1 expr mod	gsp agonist	gsp antag	ClpP mod
[41] O=C(Nc1ccc(F)cc1)C1CC(=O)N(Cc2ccco2)C1 (centres undefined)
 : 2.7	-15%	.	0.3%	-2%	10%	-0.3%
[42] CC(=O)N/N=C/C1=CCC2CC1C2(C)C (centres undefined)
 : 0.6	14%	0.9	1.3%	14%	14%	-2.4%
[43] COc1ccccc1N1CCN(Cc2cc3c(cc2O)OCO3)CC1
 : 0.1	0%	.	-2.5%	-2%	-6%	.
[44] CC(C(=O)Nc1ccccn1)c1ccccc1 (centres undefined)
 : -4.1	4%	-5.8	1.5%	2%	9%	-2.4%
[45] CCOC(=O)c1[nH]cnc1C(=O)Nc1ccccn1
 : -1.9	-21%	0.7	.	?	19%	0.1%
[46] COc1cc(Cl)c(C)cc1NC(=O)c1ccc2c(SCC(=O)O)c3c(nc2c1)CCCC3
 : -0.5	-3%	1.2	8.8%&4.1%	-1%[15.4 µM]	.	5.5%
[47] Cc1cc(C)cc(NC(=O)C(=O)NCC2CCCN2S(=O)(=O)c2cccs2)c1 (centres undefined)
 : 0.7	.	.	2.5%	12%	-12%	-2.8%
[48] COc1ccccc1NS(=O)(=O)c1cccc(NC(=O)NC2CCCCC2)c1
 : -0.3	14%	4.8	?	-1%	-16%	0.5%
[49] Cc1cccc(NC(=O)c2c(C)nn(-c3ccccc3)c2Cl)c1
 : -7.0	8%	-2.0	-0.4%	10%[15.4 µM]	-72%	.
[50] Cc1cc(C(=O)CSc2ccccc2)cc(C)c1O
 : -2.5	7%	-0.3	6.9%	8%	-2%	.
[51] S=C(Nc1ccc2nc(-c3ccccn3)c(-c3ccccn3)nc2c1)N1CCCCCC1
 : -0.1	40µM*	?	0.0%	6%[15.4 µM]	-2%	.
[52] Cc1cc(NC(=O)Cn2c(=O)oc3ccc(Cl)cc32)no1
 : 1.0	0%	-6.5	3.1%	-18%	7%	-0.6%
[53] O=C(CN1CCN(S(=O)(=O)c2ccc(Cl)s2)CC1)N1CCCCC1
 : -0.3	.	.	-1.8%	9%	12%	-3.1%
[54] Cc1c(OCC(=O)NCc2cccnc2)ccc2c3c(c(=O)oc12)CCCC3
 : 7.1	14%	.	3.9%	12%	-18%	3.9%
[55] CS(=O)(=O)c1nc(S(=O)(=O)c2ccc(Cl)cc2)c(NCCCn2ccnc2)s1
 : 1.0	-1%	.	-0.7%	-1%	-19%	-0.8%
[56] Cn1c(=O)c2c(nc(SCc3cccnc3)n2Cc2ccccc2)n(C)c1=O
 : 0.9	79µM*	0.9	1.2%[38.3 µM]	2%	12%	-1.6%
[57] C/C=C/c1cnc2c(c1)C(=O)N([C@H](C)CO)C[C@H](C)[C@@H](CN(C)C(=O)CN1CCOCC1)O2
 : -1.9	.	.	1.5%	17%	.	0.8%
[58] CCOC(=O)Cn1c(COc2ccccc2OC)[n+](C)c2ccccc21
 : 1.2	.	.	0.8%	-3%	15%	0.8%
